KCNQ2 enhance: potentiators of rat KCNQ2 potassium channel. CHO-K1 KCNQ2, FluxOR thallium flux fluorescence; stronger effect = higher value. Potassium voltage-gated channel subfamily KQT member 2 (Rattus norvegicus), O88943. AID 2239, 2010. B-score at 10 µM. 0.54% of 310,000 active;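 active = fluorescence ratio B-score at least 3 SD of library B-scores, with initial fluorescence B-score within 3 SD, cut at about 5.3 in these data; same plate scores as AID 2156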;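 also: B-score of peak minus minimum over baseline fluorescence ratio after K+ and Tl+ stimulus; positive B-score means potentiation of KCNQ2 with more thallium influx and brighter signal; only the inactives scoring about 0 or higher are listed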
Target sequence (O88943 whole entry, looked up): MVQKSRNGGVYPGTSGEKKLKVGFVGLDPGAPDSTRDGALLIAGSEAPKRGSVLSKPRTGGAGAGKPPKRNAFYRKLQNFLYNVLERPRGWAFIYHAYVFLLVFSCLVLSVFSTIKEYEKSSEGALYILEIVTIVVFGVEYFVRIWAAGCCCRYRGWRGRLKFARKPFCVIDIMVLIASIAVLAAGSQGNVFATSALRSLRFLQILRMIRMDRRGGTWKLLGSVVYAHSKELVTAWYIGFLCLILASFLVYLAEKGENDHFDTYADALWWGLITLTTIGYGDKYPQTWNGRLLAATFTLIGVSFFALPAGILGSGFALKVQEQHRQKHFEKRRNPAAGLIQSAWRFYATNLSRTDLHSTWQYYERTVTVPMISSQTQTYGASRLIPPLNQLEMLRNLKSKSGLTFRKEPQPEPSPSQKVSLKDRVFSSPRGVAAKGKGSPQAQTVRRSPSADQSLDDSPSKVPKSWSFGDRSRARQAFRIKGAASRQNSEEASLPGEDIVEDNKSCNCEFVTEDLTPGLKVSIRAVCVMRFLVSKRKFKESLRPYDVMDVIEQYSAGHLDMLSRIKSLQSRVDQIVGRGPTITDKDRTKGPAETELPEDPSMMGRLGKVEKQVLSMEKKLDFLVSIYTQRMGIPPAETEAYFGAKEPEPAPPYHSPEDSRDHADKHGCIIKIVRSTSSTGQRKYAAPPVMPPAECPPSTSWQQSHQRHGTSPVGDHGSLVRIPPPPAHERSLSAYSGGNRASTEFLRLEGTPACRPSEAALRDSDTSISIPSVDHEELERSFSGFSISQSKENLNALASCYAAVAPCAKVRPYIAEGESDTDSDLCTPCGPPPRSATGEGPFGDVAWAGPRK
KCNQ2 enhance baseline: second read-out of KCNQ2 enhance, no call of its own (marks repeat the call); B-score; compound at 10 µM; measured here: initial fluorescence intensity artifact check;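 brightness before thallium and not channel activity; 0 = typical well and far values either way flag optical interference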
Numbers without * were called inactive. Only part of the results is shown (hit frequency here may not be typical).

KCNQ2 enhance,KCNQ2 enhance baseline,structure
0.15,0.41,Cc1ccc2nc(NC(=O)CN3CCN(c4ccccn4)CC3)sc2c1
1.65,0.26,CC(C)N1CC(COc2ccc(Cl)cc2Cl)OC1=O (stereo unspecified)
1.5,2.04,CCCC(CCC)C(=O)Nc1cccc(-c2cn3c(n2)SCC3)c1
0.71,0.25,Cc1ccn2cc(-c3cccc(NC(=O)C(C)C)c3)nc2c1
0.27,-2.07,O=C(O)c1ccccc1-c1ccccc1C(=O)NCc1ccccc1Cl
0.32,-2.41,COc1ccccc1OCc1nc2ccccc2s1
0.76,0.05,CC(=O)NCCSCCNC(C)=O
1.7,-0.4,O=C(Cc1ccc([N+](=O)[O-])cc1)NNC(=O)c1ccc2c(c1)OCO2
0.83,-1.02,NS(=O)(=O)c1cccc(NC(=O)COC(=O)c2cc(Cl)ccc2[N+](=O)[O-])c1
0.12,2.54,Cc1ccc(C)c(OCCC(=O)OCC(=O)NCCNC(=O)COC(=O)CCOc2cc(C)ccc2C)c1
0.7,0.98,N=C1C(c2ccccc2)=C(O)CN1CCO
1.4,-0.56,Clc1ccccc1CSC1=NCCN1
0.16,-0.01,CC(=O)c1cccc(NC(=O)COC(=O)COc2ccc(Cl)cc2)c1
1.22,-2.35,Cc1ccc(S(=O)(=O)N(C)C)cc1NC(=O)CSc1ccc2c(c1)OCCO2
0.04,0.27,CN(CC(=O)Nc1ccc(Cl)c(C(F)(F)F)c1)C(=O)c1cc(-c2ccncc2)nc2ccccc12
0.45,-1.02,COc1ccc(CN2CCCC(N3CCN(c4cccc(Cl)c4)CC3)C2)cc1OC (stereo unspecified)
0.51,2.96,COC(=O)[C@@H]1CCCN1C(=O)[C@@H](NC(=O)OC(C)(C)C)C(C)C
0.17,0.75,O=C1C2ON(c3ccccc3)C(c3ccccn3)C2C(=O)N1c1ccc(Br)cc1 (stereo unspecified)
0.97,0.83,CCc1cccc(NC(=O)CCS(=O)(=O)c2ccc3c(c2)NC(=O)CO3)c1
0.6,0.23,O=C(Nc1ccccc1)C1=C[C@@H](c2ccc3c(c2)OCO3)C[C@@H](OCCCCO)O1

As entered above:
KCNQ2 enhance result of COC(=O)[C@@H]1CCCN1C(=O)[C@@H](NC(=O)OC(C)(C)C)C(C)C → 0.51
KCNQ2 enhance result of N=C1C(c2ccccc2)=C(O)CN1CCO → 0.7
KCNQ2 enhance baseline result of Clc1ccccc1CSC1=NCCN1 → -0.56
KCNQ2 enhance result of NS(=O)(=O)c1cccc(NC(=O)COC(=O)c2cc(Cl)ccc2[N+](=O)[O-])c1 → 0.83
KCNQ2 enhance baseline result of CCc1cccc(NC(=O)CCS(=O)(=O)c2ccc3c(c2)NC(=O)CO3)c1 → 0.83
KCNQ2 enhance baseline result of Cc1ccc(S(=O)(=O)N(C)C)cc1NC(=O)CSc1ccc2c(c1)OCCO2 → -2.35
KCNQ2 enhance result of CCCC(CCC)C(=O)Nc1cccc(-c2cn3c(n2)SCC3)c1 → 1.5

Further entries:
KCNQ2 enhance,KCNQ2 enhance baseline,structure
0.36,-0.37,Cc1cc(C)c(NC(=O)CSc2nnc(Cc3cccn3C)n2-c2ccc(F)cc2)c(C)c1
1.28,0.01,Nc1ncnc2c1ncn2Cc1ccccc1
0.04,0.89,CC(=O)N1CCc2cc(S(=O)(=O)N3CCc4ccccc43)ccc21
1.26,-0.53,COc1ccc(NS(=O)(=O)c2cccc(C(=O)NCCCN3CCOCC3)c2)cc1
1.67,0.93,CCCNC(=O)c1ccccc1NC(=O)c1ccc2c(=O)n3c(nc2c1)CCC3
0.84,-0.63,CCOc1ccc(S(=O)(=O)Nc2cccc(C(=O)N3CCN(C(C)=O)CC3)c2)cc1
0.58,-1.3,Cc1c(C(=O)NCCO)sc2nc3n(c(=O)c12)CCC3
0.22,1.77,CNC(=O)c1cc2ccccc2o1
0.01,1.37,Cc1cc(C)n(-c2nc(Nc3ccccc3)nc(-n3nc(C)cc3C)n2)n1
0.33,-0.24,Cc1cccc(C)c1OCC(=O)Nc1c(C)nn(C)c1C
0.56,-1.7,COC(=O)c1ccc(CN2C(=O)NC3(CCCCC3C)C2=O)o1 (stereo unspecified)
0.56,1.26,CSc1oc(-c2ccc(F)cc2)nc1S(=O)(=O)c1ccc(F)cc1
0.43,-0.42,O=C(CN(Cc1cccs1)C(=O)CN1C(=O)COc2ccccc21)NCc1ccco1
0.2,-0.6,O=C(/C=C/c1cc2c(cc1Br)OCO2)NCc1ccc(F)cc1
0.79,-0.03,Cc1ccc(-n2c(SCC(=O)N3CCOCC3)nnc2-c2cccnc2)cc1C
1.42,-1.04,C=CCNC(=S)NNC(=O)c1ccc(Br)o1
1.95,0.68,Cc1ccccc1CN1CCN(C(=O)c2ccco2)CC1
1.75,0.14,Cc1ccc(C)c(C(=O)C(C)OC(=O)CN2C(=O)NC3(CC(C)CC(C)(C)C3)C2=O)c1 (stereo unspecified)
0.34,0.63,COc1ccccc1N1CCN(Cc2nc3ccccc3[nH]2)CC1
0.06,-0.07,C=CCNC(=S)NNC(=O)COc1ccc(Cl)cc1Cl

Reprinted at random: four compounds from above.
KCNQ2 enhance,KCNQ2 enhance baseline,structure
0.36,-0.37,Cc1cc(C)c(NC(=O)CSc2nnc(Cc3cccn3C)n2-c2ccc(F)cc2)c(C)c1
0.04,0.89,CC(=O)N1CCc2cc(S(=O)(=O)N3CCc4ccccc43)ccc21
1.75,0.14,Cc1ccc(C)c(C(=O)C(C)OC(=O)CN2C(=O)NC3(CC(C)CC(C)(C)C3)C2=O)c1 (stereo unspecified)
1.42,-1.04,C=CCNC(=S)NNC(=O)c1ccc(Br)o1

(cont.)
KCNQ2 enhance,KCNQ2 enhance baseline,structure
0.2,0.13,COC(=O)c1ccc(/C=N/n2c(C)nc3ccccc3c2=O)cc1
0.1,-2.16,CC(C)[C@H](NC(=O)C1CC(=O)N(c2ccc(F)cc2)C1)C(=O)N1CCCCC1 (stereo partly specified)
2.15,-0.12,O=C(NCCCCc1ccccc1)Nc1ccc(F)cc1
0.95,-2.45,O=C(Nc1ccc(F)cc1)c1cccnc1N1CCCCC1
0.89,-0.03,O=C(NC(=S)N1CCN(c2ccc(F)cc2)CC1)C12CC3CC(CC(C3)C1)C2
0.65,2.5,Cc1ccc(-c2n[nH]c(=S)n2/N=C/c2cccs2)cc1
0.02,-0.69,COc1cc(COCC(O)CN2C(C)CCCC2C)cc(OC)c1OC (stereo unspecified)
0.03,0.51,O=C(Nc1cc(C(F)(F)F)ccc1N1CCOCC1)c1n[nH]c(=O)c2ccccc12
1.35,-2.33,c1ccc(OCc2nn3c(-c4ccco4)nnc3s2)cc1
1.83,-0.52,Cn1nc(C(F)(F)F)cc1Oc1ncc(C(F)(F)F)cc1Cl
1.32,0.03,O=C(COc1ccc([N+](=O)[O-])cc1)NCc1ccccc1
0.05,0.03,CCc1ccc(C(=O)COC(=O)c2nn(C)c(=O)c3ccccc23)cc1
1.48,1.22,CCOC(=O)c1c(Cl)c(C)nn1-c1nc(OC)cc(OC)n1
1.51,-0.03,O=C(NCCC1=CCCCC1)c1cc2c(s1)CS(=O)(=O)C2
0.86,-0.77,O=[N+]([O-])c1c(N2CCN(CCO)CC2)nc2ccccn12
0.27,-0.65,CCCCNC(=O)Cn1c(-c2ccc(OC)cc2)noc1=O
0.17,-0.18,COc1ccc(C(O)c2nccn2Cc2ccccc2)cc1OC (stereo unspecified)
0.02,0.16,CCC(=O)Nc1c2c(nn1-c1cccc(Cl)c1)CS(=O)(=O)C2
1.21,-0.12,C[C@H](NC(=O)CCCOc1ccc(Cl)cc1Cl)c1nnc2ccccn12
1.55,0.25,CCn1c(SCC(=O)NC2=NCCS2)nnc1C(C)NC(=O)c1ccccc1Br (stereo unspecified)
0.23,2.01,O=C(O)c1ccccc1C(=O)NCc1c(Cl)cccc1Sc1ccc(Cl)cc1
0.08,1.13,COc1c2c(cc3oc(C)cc(=O)c13)OC(C(C)(C)OC1OC(CO)C(O)C(O)C1O)C2 (stereo unspecified)
1.71,-1.3,CCOc1ccc(NC(=O)c2ccc(CSc3nnnn3C)cc2)cc1
0.76,0.12,CCn1c(C)nc2cc(S(=O)(=O)C(F)(F)C(F)C(F)(F)F)ccc21 (stereo unspecified)
1.06,-0.94,COc1ccc(-c2cc3nc[nH]c(=O)c3s2)cc1
1.84,0.15,O=C(/C=C/c1ccc(Cl)cc1)NCCCN1CCOCC1
0.11,0.42,COCCNC(=O)CCc1nc2cccnc2n1Cc1ccc(OC)cc1
0.1,0,Cc1cccc(OCCCn2c(CCNC(=O)C(C)C)nc3ccccc32)c1
0.34,-1.14,COc1cccc(OCc2cc(C(=O)N(C)CCC3CCCCO3)no2)c1 (stereo unspecified)
1.23,-0.55,Cn1c(=O)[nH]c(=O)c2c1nc(N1CCOCC1)n2CC(O)COc1ccccc1 (stereo unspecified)
1.44,2.91,CCOc1ccc(N2C(=O)CN=C2Nc2ccccc2Cl)cc1
0.4,-2.29,CCOc1c(O)ccc(/C=C2\SC(=S)NC2=O)c1[N+](=O)[O-]
1.31,-2.69,O=C(N/N=C/c1cccs1)c1ccc2c(c1)OCO2
0.42,1.27,COc1cc2c(cc1OC)C(C(C)C)=NC(C)(C)C2
1.39,-3.09,Cc1nn(-c2ccccc2)c(C)c1/C=N/NC(=O)c1cc(O)cc(O)c1
3.22,1.89,Cc1cc(N2CCOCC2)nc(SCc2ccc(Cl)cc2Cl)n1
0.09,-1,COC(=O)c1sccc1N(C)S(C)(=O)=O
0.59,-0.44,O=C(CCn1c2c(c3ccccc31)CCCC2)NNC(=O)c1ccccc1C(=O)O
0.15,2.16,CNC(=O)c1cc(C(=O)c2ccc(F)cc2Cl)c[nH]1
3.11,-0.01,Cc1nc(Nc2ccc(F)cc2)[nH]c(=O)c1CCC(C)C
0.59,-0.06,COc1cc(S(=O)(=O)NC2CCCCC2)ccc1F
0.86,-0.32,CCCCNC(=O)c1cccc(NC(=O)C(=O)c2ccccc2NC(C)=O)c1
0.23,0.7,Cc1cc(OCC(=O)c2ccc(Br)cc2)ccc1N1C(=O)CCC1=O
0.2,1.79,O=C(NCCNc1ccc([N+](=O)[O-])cc1Cl)c1ccccc1F
0.94,0.95,Nc1cccc(C(=O)O)c1
2.1,-1.19,COc1ccc(NC(=S)NN2CCOCC2)cc1OC
1.72,-0.44,O=C(CC(NCCN1CCOCC1)C(=O)O)Nc1cccc(Cl)c1 (stereo unspecified)
1.59,2.42,COc1cccc(-c2nnc(NC(=O)C(C)C)o2)c1
1.33,0.42,COCCNC(=O)c1ccc2c(=O)n(Cc3ccco3)c(SCC(=O)Nc3ccc(OC)cc3OC)nc2c1
0.08,1.96,O=C1CC(NCc2ccccc2F)C(=O)N1c1ccccc1 (stereo unspecified)
1.55,0.3,O=C(N/N=C/c1ccc2cccnc2c1)c1nc2ccccc2c(=O)[nH]1
0.31,0.32,COc1ccc(CCn2c3c(c(=O)[nH]c2=O)C(NC(=O)c2cccs2)(C(F)(F)F)C(=O)N3)cc1OC (stereo unspecified)
0.01,0,O=C(Nc1ccc2c(c1)OCO2)C1CCCN1C(=O)NCc1ccccc1 (stereo unspecified)
0.44,-0.06,CCCCn1c(N)c(N(Cc2ccccc2OC)C(=O)c2c(CC)noc2C)c(=O)[nH]c1=O
0.87,3.93,COc1ccccc1C(=O)N/N=C(\C)CC(=O)Nc1ccc2c(c1)OCCO2
1.6,-2.04,CCC(C)Nc1nc(-c2ccccn2)nc2ccccc12 (stereo unspecified)
6.68*,0.53*,CSc1scc2c1-c1nc(SCC(=O)C(C)(C)C)ncc1CC2
0.21,-0.8,O=c1cc(/C=C/c2ccccc2)oc2c1ccc1ccccc12
0.09,-1.51,O=C(Cc1cccc2ccccc12)NCCc1ccccc1
0.12,0.38,CCNc1nc(NCC)n2c(SCC(=O)Nc3cccc(F)c3)nnc2n1

The listing continues:
KCNQ2 enhance,KCNQ2 enhance baseline,structure
0.18,0.17,COC(=O)[C@H](CCSC)NC(=O)Nc1cccc(Br)c1
11.7*,0.02*,C/C(=N\NC(=O)c1ccoc1C)c1cccc2ccccc12
0.19,-2.8,CN1C(=O)/C(=C/c2cc(N=Nc3ccccc3)ccc2O)SC1=S
0.16,-0.57,Clc1c(-c2ccccc2)nc2ccccn12
0.12,2.52,NC(=O)C1CCCN(C(=O)Nc2cccc3ccccc23)C1 (stereo unspecified)
0.66,0.58,CCCN(CC1CCCO1)C(=O)c1cc(COc2cccc(OC)c2)on1 (stereo unspecified)
0.98,-0.94,CC1(C)C(=O)NCCN1C(=O)CC1C(=O)NCCN1CC(c1ccccc1)c1ccccc1 (stereo unspecified)
0.8,0.12,N#CC1=C(N)OC2=C(C(=O)CCC2)[C@]12C(=O)N(CC(N)=O)c1ccccc12
0.23,1.96,Cc1ccc2c(c1)C(=NC1CCCCC1)c1cc3ccccc3nc1-2
1.19,0,COC(=O)CSc1nc(N2CCOCC2)c2c(c1C#N)CC(C)(C)N(C)C2
0.26,-0.45,CC1CCCC(C)N1C(=O)c1ccccc1Nc1ccc(SC(F)F)cc1 (stereo unspecified)
0.75,-0.1,S=c1[nH]nc(-c2ccco2)n1/N=C/c1ccccn1
1.49,0.13,O=C1OC(N2C(=O)CC[C@H]2C(=O)Nc2ccc(Br)cc2F)c2ccccc21 (stereo partly specified)
0.93,1.16,Cc1nc(C)c(C(=O)NNS(=O)(=O)c2ccc3ccccc3c2)s1
0.67,-2.19,CC(C)c1ccc(S(=O)(=O)NC2CCCC2)cc1
0.64,0.28,COc1cc(C)c(NC(c2ccccc2)c2ccccc2)cc1OC
0.96,1.8,COc1ccc(N(C(=O)c2ccco2)C(C(=O)NC2CCCC2)c2ccncc2)cc1OC (stereo unspecified)
0.03,2.88,O=C(/C=C/c1ccc([N+](=O)[O-])cc1)N1CCN(c2ccccc2F)CC1
2.85,0,CC(=O)NC(C)Cc1cn(Cc2ccccc2)c2ccccc12 (stereo unspecified)

Screening results: PubChem, Johns Hopkins Ion Channel Center
